Cruzain inh noDet – qHTS Assay for Promiscuous and Specific Inhibitors of Cruzain (without detergent); actives 2.3% (n = 200,000); AID 1476, 2009; Potency, µM, for inactives: max response, negative = inhibition, usual class: inhibitors; purified cruzain, Z-FR-AMC fluorescence, no detergent; active = well fitted curve in the direction sought with a large enough effect; inconclusive = small, poorly fitted or top-dose-only effect, or another doubt; inactive = no such curve, though single readings can be large; an effect the other way counts as inactive or inconclusive;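 note: plate controls were enzyme without inhibitor for no effect and buffer without enzyme for full effect; nearly all actives have a fitted effect of over 40% in size; top concentration of the series not given in the record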
Target sequence (P25779 123-467 limits assumed): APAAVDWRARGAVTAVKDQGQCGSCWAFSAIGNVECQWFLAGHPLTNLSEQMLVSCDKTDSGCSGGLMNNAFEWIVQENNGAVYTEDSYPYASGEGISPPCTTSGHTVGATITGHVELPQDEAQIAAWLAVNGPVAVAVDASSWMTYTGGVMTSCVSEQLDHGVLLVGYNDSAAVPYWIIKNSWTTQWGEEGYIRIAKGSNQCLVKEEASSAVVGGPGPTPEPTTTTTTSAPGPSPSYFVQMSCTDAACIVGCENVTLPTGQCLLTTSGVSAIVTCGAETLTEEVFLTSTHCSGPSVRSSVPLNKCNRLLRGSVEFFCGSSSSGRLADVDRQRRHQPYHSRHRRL
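Purified cruzain at 1.5 nM, pre-incubated 15 min with compound at room temperature in 100 mM sodium acetate pH 5.5, 5 mM DTT, 0.00005% Triton X-100. Reaction started with 2 uM Z-FR-AMC; AMC fluorescence increase over 60 s gives rate.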
LASV entry inh – qHTS for Inhibitors of binding or entry into cells for Lassa Virus. Lassa virus pseudotype entry inhibition, cell reporter; control for the full effect not named in the record. Potency, µM (top dose mostly 37.9 µM), without a hit: at the top dose activity change, negative = inhibition, usual class: inhibitors. actives 1.2% (n = 300,000). AID 540256, 2011; active means well fitted inhibition curve with a large enough effect; inconclusive means small, poorly fitted or top-dose-only effect, or effect the other way; inactive means flat fitted curve, though single readings scatter; tested in HEK293 cells; note: % is set by controls: 0 for no effect and ±100 for the full control effect; nearly all actives have a fitted effect of over 50% in size; luciferase read-out
SARS PLpro yeast – qHTS of Yeast-based Assay for SARS-CoV PLP; Potency, µM (series often up to 32.9 µM), for inactives: at the top dose activity, positive = growth rescue; AID 485353, 2010; actives 0.19% (n = 330,000); S. cerevisiae expressing SARS-CoV PLpro, growth rescue; control for the full effect not named in the record; note: 0% is about no effect; nearly all actives have a fitted effect of over 55% in size; growth read by luminescence after 48 h
NS1 function inh – qHTS Assay for Inhibitors of Influenza NS1 Protein Function; S. cerevisiae slowed by influenza A NS1, growth recovery by OD600; Potency, µM (doses to about 46.1 µM), without a hit: top-dose activity, positive = more growth; actives 0.4% (n = 270,000); note: actives are rising curves; nearly all actives have a fitted effect of over 50% in size
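Read-out: OD600 growth recovery of NS1-expressing budding yeast. Cells grown overnight at 30C in -URA glucose medium, washed, resuspended and diluted 1:100 in 2% galactose assay medium, pH 6.0. Same strain lacking NS1 served as positive control.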
Cruzain Triton – qHTS Assay for Promiscuous and Specific Inhibitors of Cruzain (with detergent) | Potency, µM, for inactives: max response, negative = inhibition, usual class: inhibitors | Cruzipain (Trypanosoma cruzi), P25779 | purified cruzain, Z-FR-AMC fluorescence, 0.01% Triton | actives 0.43% (n = 200,000) | AID 1478, 2009; active = well fitted curve in the direction sought with a large enough effect; inconclusive = small, poorly fitted or top-dose-only effect, or another doubt; inactive = no such curve, though single readings can be large; an effect the other way counts as inactive or inconclusive;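 note: plate controls were neutral wells for no effect and buffer without enzyme for full effect; nearly all actives have a fitted effect of over 40% in size; top concentration of the series not given in the record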
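15 min RT preincubation of 1.5 nM cruzain with compound, then 2 uM Z-FR-AMC added; kinetic AMC fluorescence, 60 s delta. Triton X-100 0.01%, pH 5.5.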
Marburg entry inh – qHTS for inhibitors of binding or entry into cells for Marburg Virus; Marburg virus pseudotyped entry inhibition, cell reporter; control for the full effect not named in the record; about a third of the inactives were read at about 46 µM; Potency, µM (doses to about 37.8 µM), inactives show at the top dose activity change, negative = inhibition, most hits filed as inhibitors; actives 1.8% (n = 300,000); active = well fitted inhibition curve with a large enough effect; inconclusive = small, poorly fitted or top-dose-only effect, or effect the other way; inactive = flat fitted curve, though single readings scatter; tested in HEK293 cells; about a fifth of its hits are not listed in these tables; note: % is set by controls: 0 for no effect and ±100 for the full control effect; luciferase read-out
StopGo reporter – High Throughput Screening for Foot and Mouth Disease Virus Antivirals | human cells with a luciferase reporter of 2A StopGo recoding; control for the full effect not named in the record | actives 1.2% (n = 410,000) | Potency, µM (titrated, usually from 57.9 µM), without a hit: at the highest dose signal change, negative = less light | AID 1159524, 2015; active = well fitted falling curve with a large enough effect; inconclusive = small, poorly fitted or top-dose-only effect; inactive = no such curve, though single readings can be large or run the other way; tested in HEK293T cells; note: % is set by controls: 0 for no effect and ±100 for the full control effect; nearly all actives have a fitted effect of over 45% in size; luciferase light after 4 h
RE007 growth inh – qHTS Assay for Inhibitors of the HIV-1 protein Vpr | S. pombe RE007 Vpr strain, BacTiter-Glo ATP luminescence, 24 h; control for the full effect not named in the record | Potency, µM (top dose mostly 92.2 µM), for the others: at the highest dose activity change, negative = less growth | actives 0.21% (n = 360,000) | AID 651644, 2012; active = well fitted falling curve with a large enough effect; inconclusive = small, poorly fitted or top-dose-only effect; inactive = no such curve, though single readings can be large or run the other way;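 note: % is set by controls: 0 for no effect and ±100 for the full control effect; nearly all actives have a fitted effect of over 50% in size; the assay follows cell death caused by Vpr and the record does not say whether a fall means rescue or toxicity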
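Fission yeast RE007 carrying one integrated HIV-1 vpr copy, seeded at OD 0.01 in PMG+AL medium with 23 nL pinned compound. Grown 24 h at 30 degrees; viability read by BacTiter-Glo luminescence after 5 min.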
Numbers without * were called inactive; u = inconclusive; x = no result given; & = joins results of further samples; [ ] = dose if it differs, or a comment. Unless noted, calls come from the whole dose curve; as a rule, active means well fitted rising curve with a large enough effect; inconclusive means small, poorly fitted or top-dose-only effect; inactive means no such curve, though single readings can be large or run the other way. Potency is the fitted concentration of half-maximal effect.

SMILES	Cruzain inh noDet	LASV entry inh	SARS PLpro yeast	NS1 function inh	Cruzain Triton	Marburg entry inh	StopGo reporter	RE007 growth inh
CC1CN(S(=O)(=O)c2ccccc2)CN1C(=O)N1CCOCC1 (stereo unspecified)	x	0%	-1%	7%	x	9%[46.1 µM]	-12%	15%
CCN(CC)CCOC(=O)c1c(C)n(C)c2ccc(OC)cc12	-10%	6%	-6%	-2%	3.5%	3%&3%	-22%	-12%
CC(C)CCNCC1OCc2ccccc2CO1	-3%	-2%	-25%	4%	-3.0%	-8%	-13%	1%
COc1ccc(C)cc1NS(=O)(=O)c1ccc(NS(=O)(=O)c2ccc(NC(C)=O)cc2)cc1	-5%	0%	-1%	-17%	-3.5%	-2%	x	11%
CCOc1ccccc1-c1cc(C(=O)N2CCOCC2)c2ccccc2n1	x	4%	-1%	-9%	x	2%	-24%	6%
CC1CC=C2C(C#N)=C(N)C(C#N)(C#N)C(c3cccs3)C2C1 (stereo unspecified)	6%	13%	1%	12%	-5.6%	0%&0%	u	0%
O=C(CN1CCOCC1)Nc1c(C(=O)C2CC2)oc2ccccc12	x	x	2%	-30%	x	x	-18%	-14%
O=C(Nc1ccc([N+](=O)[O-])cc1)c1nc[nH]c1C(=O)NC1CCCCC1	u	1%	8%	3%	0.0%	-5%	-10%	-1%
Cc1ccc(S(=O)(=O)N(C)c2ccc(OCC(=O)N3CCCC(C(F)(F)F)C3)cc2)cc1 (stereo unspecified)	x	u	-13%	x	x	-2%	-24%	6%
Cc1cc(C)c(OCC(O)CNC(C)(C)C)c(C)c1 (stereo unspecified)	x	18%	1%	x	x	u	0%	9%
COc1ccc(C(=O)NCCc2sc(-c3ccc(Cl)cc3)nc2C)c(OC)c1	u	13%[46.1 µM]	x	x	-12%	x	-25%	x
CC1CC(C)CN(C(=O)CSC2=Nc3ccccc3C3=NC(Cc4c[nH]c5ccccc45)C(=O)N23)C1 (stereo unspecified)	2%	2.6µM*	-1%	24%	-9.2%	u	-1%	10%[3.69 µM]
CCOC(=O)c1ccc(S(=O)(=O)n2c(CN3CCCCC3)nc3ccccc32)cc1	-2%	-26%	5%	-31%	0.3%	u	0%	16%
CC(=O)N(NC(N)=O)C(C)CC(=O)C1C(C)C=CCC1(C)C (stereo unspecified)	x	-7%[46.1 µM]	0%	3%	x	26%[46.1 µM]	-11%	0%
CCCc1nc2c(C)ccc(C)c2c(N)c1CC	1%	-24%	5%	-7%	2.2%	9.2µM*	-21%	-12%
O=C(CSc1nnc(-c2cnccn2)n1Cc1ccco1)c1ccc(Cl)cc1	-13%	-11%	0%	-4%	-7.7%	23%	-30%	-2%
CCc1ccccc1NC(=O)c1cc(S(=O)(=O)N2CCCc3ccccc32)ccc1F	-3%	-1%[46.1 µM]	x	x	1.6%	x	u	x
COc1cc(C(=O)NNC(=O)/C=C/c2ccco2)cc(OC)c1OC	x	u	1%	x	x	u	6%	-13%
CCc1c(C)sc(NC(=O)CN2CCN(C(=O)c3ccco3)CC2)c1C(=O)OC	x	3.5µM*	-11%	-75%	x	u	u	8%
CCOc1ccccc1NC(=S)N1CCN(c2ccc(OC)cc2)CC1	x	x	0%	-6%	x	x	-16%	9%
COc1ccc(-n2nnnc2SCC(=O)NC2CCCC2)cc1OC	x	-12%[46.1 µM]	2%	2%	x	0%[46.1 µM]	0%	-2%
CC(=O)Nc1c(Cl)c(Cl)c2c(c1Cl)Cc1cc(Cl)ccc1-2	x	-17%	x	x	x	-8%	1%	19%
Cc1ccccc1C(=O)c1cccn1CC(=O)NCc1ccc(F)cc1	x	-3%[46.1 µM]	-6%	4%	x	-11%[46.1 µM]	15%	2%
CCOC(=O)c1c(NC(=O)c2ccoc2C)sc2c1CCC2	5%	-5%	-1%	-12%	-2.2%	22%	-4%	2%
NC(=O)C1(N2CCCCC2)CCN(C(=S)Nc2ccc(F)cc2)CC1	11%	-12%	12%	5%	-1.2%	2%	-18%	2%
CC(C)CN(C(=O)CSc1nc2ccccc2[nH]1)C1CCS(=O)(=O)C1 (stereo unspecified)	x	-15%	3%	x	x	10%	-16%	-11%
COc1ccc2nc(-c3ccccc3)cc(OC)c2c1	-5%	u	-2%	-5%	-20%	u	22%	-23%
Cc1ccccc1OCCC(=O)Nc1cc(S(=O)(=O)N2CCOCC2)ccc1OC(C)C	x	-17%[46.1 µM]	1%	-6%	x	u	-18%	5%
CC1C(=O)N2CCCc3cc(NS(=O)(=O)c4ccc(F)cc4)cc1c32 (stereo unspecified)	x	u	6%	x	x	2%[46.1 µM]	-8%	41%
COC(=O)N/N=C/c1ccc(-c2cc(Cl)cc(Cl)c2)o1	-12%	-15%	-50%	12%	-8.4%	-22%	-17%	-25%
CCC(C)(C)n1nnnc1CN1CCC(O)(c2cccc(C(F)(F)F)c2)CC1	x	-24%	x	x	x	-5%[46.1 µM]	-28%	-13%
COc1ccc(CCNS(=O)(=O)c2ccc3c(c2)oc(=O)n3C)cc1OC	9%	x	-11%	5%	-2.3%	x	-13%	-2%
CCC(=O)Nc1ccc(/C(C)=N\NC(=O)c2ccc(OC)cc2)cc1	u	11%	1%	6%	1.4%	30%	-10%	2%
CCOC(=O)C1CCN(C(=O)c2ccc3c(c2)S(=O)(=O)c2ccccc2C3=O)CC1	x	-17%	-1%	-8%	x	-6%[46.1 µM]	27%	2%
O=C(COc1nsnc1N1CCOCC1)Nc1ccc(Cl)cc1	x	x	-1%	-2%	x	x	-14%	1%
Cc1ccc2cc(CCNC(=O)C(C)C)c(=O)[nH]c2c1	5%	x	1%	-1%	-4.0%	x	18%	-13%
Cc1nc2ncnn2c(C)c1CCC(=O)Nc1ccc(S(=O)(=O)N2CCCCCC2)cc1	u	0%	-5%	-32%	-0.4%	-1%&-1%	28%	4%
O=C(O)CSCC(=O)N1CCCN(c2nc3ccc(Cl)cc3s2)CC1	x	6%	0%	4%	x	4%	-6%	3%
CCOC(=O)c1c(CN(CC)CC)n(-c2ccccc2)c2ccc(O)cc12	x	-14%	4%	-1%	x	u	8%	8%
CC(C)C(=O)Nc1oc(-c2ccccc2)cc1C#N	x	u	0%	0%	x	5%[14.2 µM]	-9%	-6%
CC(C)On1c(SCC(=O)N(C)C)nc2ccccc2c1=O	x	x	0%	0%	x	x	-9%	6%
CCn1c(C)nc2c(C)[n+](CC(=O)c3ccc(Br)cc3)ccc21	x	14%[46.1 µM]	-1%	1%	x	u	-10%	u
CCCOC(=O)c1c(NC(=O)C2c3ccccc3Oc3ccccc32)sc2c1CCC(C)C2 (stereo unspecified)	20µM*	6%[46.1 µM]	x	x	-2.2%	3%[46.1 µM]	2%	x
CCCc1cc(=O)oc2cc(C)cc(OC(C)C(=O)NCCCN3CCOCC3)c12 (stereo unspecified)	x	x	4%	-12%	x	x	-7%	-7%
CC(C)CNC(=S)NNC(=O)c1ccco1	2%	-1%	8%	12%	7.1%	3%	-6%	0%
Cc1ccccc1NS(=O)(=O)c1nnc(NC(=O)c2ccc(Br)cc2)s1	x	11%[46.1 µM]	-4%	0%	x	10%[46.1 µM]	15%	-11%
NC(=O)c1ccccc1NC(=O)CSc1nc2ccccc2c(=O)[nH]1	x	-11%	-4%	6%	x	-11%	-13%	12%
Cc1cc(-c2nnc(CSc3nnc(NC(=O)c4ccc(C(C)(C)C)cc4)s3)o2)ccc1[N+](=O)[O-]	x	u	-2%	0%	x	-10%	20%	4%
CCOc1ccc(NC(=O)c2ccc(CN3CCc4ccccc4C3)cc2)cc1	x	-11%[46.1 µM]	x	14%	x	u	u	13%
Cc1cc(NC(=O)CCN2C(=O)c3ccccc3C2=O)no1	-11%	4%	1%	-1%	1.6%	4%	-19%	-11%

The listing continues.
SMILES	Cruzain inh noDet	LASV entry inh	SARS PLpro yeast	NS1 function inh	Cruzain Triton	Marburg entry inh	StopGo reporter	RE007 growth inh
O=C(NNC(=O)c1ccc2ccccc2c1)Nc1ccc(F)cc1	x	x	-7%	2%	x	x	24%	9%
Fc1cc(Cl)c(OCc2noc(-c3ccsc3)n2)c(Cl)c1	x	x	1%	4%	x	x	30%[activator]	0%
CC(=O)Nc1cc2c(=O)n(Cc3ccccc3)c(C)nc2cc1N1CCOCC1	12%	22%	2%	-2%	-2.3%	25%	39%[activator]	7%
CN(C)CCNC(=S)Nc1ccc(Br)cc1	-5%	u	16%	6%	-3.9%	0%	11%	-13%
CCOc1ccc(CCNC(=O)CSCC(=O)Nc2cccc(C)c2)cc1OCC	x	-4%	1%	x	x	-12%	-10%	-11%
Cc1cccc(C)c1NC(=O)CS(=O)CC(=O)NCCCc1ccccc1 (stereo unspecified)	16%	2%	-2%	19%	-1.1%	10%	x	11%
CCN(CC(=O)Nc1c(F)cccc1F)C(=O)CCCNC(=O)c1ccc(Cl)cc1	x	19%	2%	x	x	3%	-7%	-10%
Cc1ccc2cccc(OC(=O)c3ccc4c(c3)OCCO4)c2n1	9%	-34%	3%	-44%	1.2%	-35%	18%	-1%
COc1ccc(C(=O)N/C(=C\c2cn(C)c3ccccc23)C(=O)N2CCOCC2)cc1OC	x	x	-1%	-4%	x	x	0%	-5%
O=C(Nc1ccccn1)c1ccc(Br)c(S(=O)(=O)N2CCCCC2)c1	-4%	4%	9%	4%	-0.5%	8%	u	-27%
CC(C)CN(Cc1cc(=O)oc2cc3c(cc12)CCCC3)CC(C)C	x	x	-1%	3%	x	x	-5%	-6%
CCOc1ccc(CCNC(=O)c2cc(=O)[nH]c3ccc(S(=O)(=O)N(CC)CC)cc23)cc1OCC	x	-3%	5%	1%	x	21%	7%	-3%
Cc1ccc(NC(=O)C[n+]2cc(-c3ccccc3)n3c2CCC3)cc1	x	x	0%	4%	x	x	5%	6%

Screens as filed in PubChem BioAssay.
